MITF inh – inhibitors of MITF, primary screen, MITF inhibitor project, cell-based, luminescence; inhibition, % (concentration not given with the values); AID 2240, 2010; hit rate 0.28% among 37,000; TRPM1 promoter luciferase, 24 h;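 active = most replicates at 85% or more, or half of them and the mean; inconclusive = half reach 85% but not the mean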;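 also: human melanocyte line stably carrying TRPM1 promoter luciferase reporter; 0% = vehicle wells and 100% = a positive control; the first replicate is given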
PD-1 reversal – activators reversing PD-1 mediated T-cell inhibition, primary screen, luminescence, primary human CD4 T cells, PD-L1 beads. CellTiter-Glo 96 h. activation, % (concentration not given with the values). 29,000 tested, under 10 active;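 active = replicate mean of 50% or more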;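 also: 0% = median vehicle wells and 100% = positive control; 100 nL library stock added to about 50 µL; numbers are from one replicate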
YB-1 expression – inhibitors of YB-1 gene expression, primary screen, cell-based, fluorescence | AID 434959, 2010 | hit rate 0.37% among 30,000 | delta delta Cp (YB-1 minus CDIP) (test concentration not listed) | U2OS, qRT-PCR YB-1 vs CDIP delta delta Cp, 16 h; active compounds read high; zero = DMSO, each unit about twofold;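 active = delta delta Cp rounded down to an integer at or above 3, about 3 SD of DMSO wells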;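 also: higher means less YB-1 transcript or more CDIP transcript relative to DMSO; stock transfer was 100 nL into about 100 µL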
Shh pathway inh – Hedgehog pathway signaling inhibitors, primary screen, luminescence, Shh-LIGHT2 cells, Gli-luciferase | Shh-LIGHT2 Gli-luciferase reporter, 30 h | inhibition, % (concentration not given with the values) | hit rate 2.1% among 22,000 | AID 2313, 2010;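 active = replicate mean of 65% or more; inconclusive = mean lower but half the replicates past it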;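 also: pathway switched on by Shh-conditioned medium diluted 1 in 25 in low serum; 100 nL library stock added to about 40 µL; 0% = median of neutral wells and 100% = positive control level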
Numbers without * were called inactive; ? = inconclusive; . = not tested or not shown.

Value order – MITF inh	PD-1 reversal	YB-1 expression	Shh pathway inh
> Cc1noc(C)c1NC(=O)N(C)C[C@H]1OCCCC[C@@H](C)Oc2ccc(NC(=O)c3ccccc3)cc2C(=O)N([C@H](C)CO)C[C@@H]1C
  1	2.3	0.07	-10
> C[C@@H]1CN([C@H](C)CO)C(=O)c2cc(NC(=O)Cc3cn(C)c4ccccc34)ccc2O[C@@H]1CN(C)C(=O)Nc1ccccc1
  0	-0.1	-0.051	.
> COc1cc(OCCN2CCOCC2)ccc1C1C(C#N)=C(N)Oc2nc(C(F)(F)F)[nH]c21 (stereo unspecified)
  -13	-5.4	-0.17	-20
> C[C@@H]1CN([C@@H](C)CO)C(=O)Cc2cc(NS(=O)(=O)c3cccs3)ccc2O[C@@H]1CN(C)S(=O)(=O)c1cccs1
  -18	1.9	0.18	0
> O=C(OCc1nc2ccccc2s1)c1ccco1
  -1	-1.3	.	.
> Cc1noc(C)c1S(=O)(=O)Nc1ccc2c(c1)C(=O)N([C@H](C)CO)C[C@H](C)[C@@H](CN(C)Cc1ccccc1)OCCCC[C@@H](C)O2
  2	-0.4	-0.15	-15
> COC(=O)c1ccc(COc2ccc3c(c2)oc(=O)c2cc(OC)ccc23)o1
  9	2.1	.	.
> C[C@H]1CN([C@@H](C)CO)C(=O)c2cccc(NC(=O)c3ccc(-c4nccs4)cc3)c2O[C@@H]1CN(C)S(=O)(=O)c1cccs1
  -4	-0.3	-0.41	23
> COC(=O)COc1ccc(S(=O)(=O)NC2CCCCCC2)cc1
  -22	-5.9	.	.
> C[C@@H]1CN([C@H](C)CO)C(=O)c2cc(NC(=O)C3CCCCC3)ccc2O[C@H]1CN(C)Cc1ccc(C(F)(F)F)cc1
  -13	1.2	0.064	5
> COc1ccc(S(=O)(=O)N(C)C[C@@H]2Oc3c(NS(=O)(=O)c4ccccc4)cccc3C(=O)N([C@@H](C)CO)C[C@H]2C)cc1
  -12	-2.7	-0.23	-30
> COc1ccc(NC(=O)N(C)C[C@H]2Oc3ccc(NS(=O)(=O)c4ccc(OC)cc4)cc3C(=O)N([C@@H](C)CO)C[C@H]2C)cc1
  -2	-1.1	0.18	18
> Cc1ccc(-c2nc3ccccc3s2)cc1NC(=O)COc1ccccc1C
  23	0.0	.	.
> Cc1noc(C)c1NC(=O)N(C)C[C@H]1Oc2ccc(NC(=O)c3ccncc3)cc2C(=O)N([C@@H](C)CO)C[C@@H]1C
  -3	2.7	-0.83	.
> COc1cc(C2NC(=S)NC(C)=C2C(=O)Nc2ccccc2Cl)ccc1OCC#N (stereo unspecified)
  -11	-2.8	.	.
> O=C(Nc1ccc(S(=O)(=O)Nc2ncccn2)cc1)c1c(Cl)cccc1Cl
  -27	1.8	.	.
> CC(C)NC(=O)N(C)C[C@H]1Oc2c(NS(=O)(=O)c3cn(C)cn3)cccc2C(=O)N([C@H](C)CO)C[C@H]1C
  -13	2.9	12*	-60
> CN(CC(=O)Nc1ccc2c(c1)OCCO2)S(=O)(=O)c1ccc2ccccc2c1
  3	1.5	.	.
> Cc1ccc2nc(-c3cccc(NC(=O)COc4ccc([N+](=O)[O-])cc4)c3)oc2c1
  32	1.5	.	.
> O=c1[nH]c2ccc(Cl)cc2c2oc(-c3ccccc3)nc12
  -2	10	-0.45	-23
> C[C@@H]1CN([C@H](C)CO)C(=O)c2cccc(NS(=O)(=O)c3ccc(F)cc3)c2O[C@H]1CN(C)Cc1ccncc1
  -1	2.0	-0.57	-24
> CNC[C@@H]1Oc2ccc(NC(=O)NC3CCCCC3)cc2CC(=O)N([C@H](C)CO)C[C@@H]1C
  -5	1.9	-0.22	-35
> COc1ccc(S(=O)(=O)N(C)C[C@@H]2Oc3ccc(NC(=O)Nc4c(C)noc4C)cc3CC(=O)N([C@H](C)CO)C[C@@H]2C)cc1
  -3	2.2	0.24	25
> Cc1noc(C)c1NC(=O)Nc1ccc2c(c1)CC(=O)N([C@H](C)CO)C[C@H](C)[C@H](CN(C)C(=O)Nc1ccc(C(F)(F)F)cc1)O2
  1	0.8	-0.003	-24
> CNC[C@H]1Oc2c(NC(=O)C3CCCCC3)cccc2C(=O)N([C@@H](C)CO)C[C@@H]1C
  -14	.	-0.21	-62
> COc1ccc(NC(=O)Nc2ccc3c(c2)CC(=O)N([C@H](C)CO)C[C@@H](C)[C@@H](CN(C)S(=O)(=O)c2ccccc2)O3)cc1
  -6	1.0	0.12	2
> Cc1noc(C)c1S(=O)(=O)N(C)C[C@@H]1Oc2ccc(NS(C)(=O)=O)cc2CC(=O)N([C@H](C)CO)C[C@@H]1C
  9	.	0.23	42
> O=C(O)c1ccc2nc(CCc3nc4ccc(C(=O)O)cc4[nH]3)[nH]c2c1
  -11	1.0	0.39	.
> CC(C)NC(=O)Nc1ccc2c(c1)CC(=O)N([C@H](C)CO)C[C@@H](C)[C@@H](CN(C)CC1CC1)O2
  -15	-1.1	-0.53	.
> COc1ccc(S(=O)(=O)Nc2ccc3c(c2)C(=O)N([C@H](C)CO)C[C@@H](C)[C@@H](CN(C)Cc2ccccc2)O3)cc1
  6	0.6	-0.21	9

Next section.
Value order – MITF inh	PD-1 reversal	YB-1 expression	Shh pathway inh
> COc1ccc(N2Cc3ccccc3C3(CCOCC3)C2=N)cc1
  13	-1.2	0.15	-30
> C[C@H]1CN([C@@H](C)CO)C(=O)c2cccc(NC(=O)C3CC3)c2O[C@H]1CN(C)Cc1ccccc1
  -2	2.8	0.21	-18
> O=[N+]([O-])c1nn(-c2ccc(Cl)cc2)n(O)c1=NCc1ccccn1
  22	-8.4	.	.
> C[C@H](CO)N1C[C@H](C)[C@H](CN(C)Cc2ccc(C(=O)Nc3ccccc3N)cc2)Oc2c(NC(=O)C3CCCCC3)cccc2C1=O
  -13	-1.5	0.059	.
> C[C@H](CO)N1C[C@H](C)[C@H](CN(C)Cc2ccc(-c3ccccc3)cc2)Oc2ccc(NC(=O)Cc3cn(C)c4ccccc34)cc2C1=O
  10	-2.2	-1.3	.
> Cc1cc(OCC(=O)Nc2cccc(-c3nc4ccccc4o3)c2C)cc(C)c1Cl
  64	-6.1	.	.
> CC(C)NC(=O)Nc1ccc2c(c1)C(=O)N([C@H](C)CO)C[C@H](C)[C@@H](CN(C)Cc1ccc3c(c1)OCO3)O2
  -1	-0.3	0.045	-3
> COc1ccc(NC(=O)Nc2ccc3c(c2)CC(=O)N([C@H](C)CO)C[C@@H](C)[C@@H](CN(C)C(=O)Nc2ccc(F)cc2)O3)cc1
  -3	.	0.43	?
> C[C@@H]1CN([C@H](C)CO)C(=O)Cc2cc(NC(=O)Nc3cccc4ccccc34)ccc2O[C@H]1CN(C)C(=O)Nc1ccccc1
  -33	0.7	-0.0084	.
> Cc1cc(C)cc(NC(=O)CSC2CC(=O)N(c3ccc(F)cc3)C2=O)c1 (stereo unspecified)
  -2	-2.3	.	.
> COc1ccc(CN(C)C[C@H]2Oc3ccc(NC(=O)Cc4cn(C)c5ccccc45)cc3CC(=O)N([C@H](C)CO)C[C@H]2C)cc1
  3	.	0.004	.
> C[C@H](CO)N1C[C@H](C)[C@H](CN(C)C(=O)Nc2cccc3ccccc23)Oc2ccc(NC(=O)CCC(F)(F)F)cc2C1=O
  4	-1.0	-0.48	15
> C[C@@H]1CN([C@H](C)CO)C(=O)Cc2cc(NS(=O)(=O)c3ccc(F)cc3)ccc2O[C@H]1CN(C)S(C)(=O)=O
  -18	.	-0.039	.
> C[C@@H]1CN([C@H](C)CO)C(=O)c2cccc(NS(=O)(=O)c3cn(C)cn3)c2O[C@H]1CN(C)Cc1ccc(C(=O)Nc2ccccc2N)cc1
  -17	-1.0	0.14	.
> O=C(O)CCc1cc2ccoc2cc1O[C@@H]1O[C@H](CO)[C@@H](O)[C@H](O)[C@H]1O
  .	.	0.78	5
> Nc1nc(SCC(=O)Nc2ccccc2)[nH]c(=O)c1-c1ccccc1
  -13	0.9	.	.
> Cc1ccccc1NC(=O)CSc1nnc(-c2ccc([N+](=O)[O-])cc2)n1C
  -1	0.5	.	.
> Cc1noc(C)c1NC(=O)N(C)C[C@@H]1Oc2c(NC(=O)C3CC3)cccc2C(=O)N([C@@H](C)CO)C[C@H]1C
  2	0.4	0.014	-27
> O=C(CSc1nnnn1-c1ccccc1)Nc1ccc(Br)cc1Cl
  -2	0.9	.	.
> C[C@@H]1CN([C@H](C)CO)C(=O)Cc2cc(NS(=O)(=O)c3cn(C)cn3)ccc2O[C@H]1CN(C)CC1CCCCC1
  -11	0.9	-0.061	-13
> C[C@@H]1CN([C@@H](C)CO)C(=O)c2cccc(NS(=O)(=O)c3ccccc3)c2O[C@H]1CN(C)Cc1ccc(C(F)(F)F)cc1
  -6	0.0	0.4	15
> O=C(COc1ccc2ccccc2c1Br)Nc1ccccc1C(=O)N1CCCCC1
  29	0.4	.	.
> Cc1ccc(-c2cc(C(F)(F)F)n3nc(C(=O)NCCCn4ccnc4)cc3n2)cc1C
  11	-6.9	.	.
> COc1ccc(S(=O)(=O)Nc2ccc3c(c2)CC(=O)N([C@@H](C)CO)C[C@@H](C)[C@@H](CN(C)Cc2ccncc2)O3)cc1
  -18	1.2	-0.1	-22
> C[C@H]1CN([C@@H](C)CO)C(=O)c2cc(NC(=O)Cn3cnnn3)ccc2O[C@H]1CN(C)Cc1ccc(Oc2ccccc2)cc1
  -17	2.5	-0.12	.
> C[C@@H]1CN([C@@H](C)CO)C(=O)c2cccc(NC(=O)c3ccncc3)c2O[C@@H]1CN(C)CC1CCCCC1
  -11	0.2	0.28	23
> COc1ccc(NC(=O)N(C)C[C@@H]2Oc3c(NS(=O)(=O)c4cn(C)cn4)cccc3C(=O)N([C@@H](C)CO)C[C@H]2C)cc1
  -8	1.0	0.15	-64
> C[C@H]1CN([C@@H](C)CO)C(=O)Cc2cc(NS(=O)(=O)c3cn(C)cn3)ccc2O[C@@H]1CN(C)Cc1ccc(Oc2ccccc2)cc1
  -3	0.1	0.53	5
> O=C1c2ccccc2C(=O)N1CCCc1nc2c3c4c(sc3ncn2n1)CCCCC4
  -17	0.4	.	.
> Cc1noc(C)c1NC(=O)Nc1ccc2c(c1)C(=O)N([C@H](C)CO)C[C@@H](C)[C@H](CN(C)S(=O)(=O)c1cn(C)cn1)O2
  -3	2.6	-0.32	-21

Next compounds follow:
Value order – MITF inh	PD-1 reversal	YB-1 expression	Shh pathway inh
> CC(C)OC(=O)Nc1cc(Cl)cc(Cl)c1
  -25	-18	-0.055	-4
> CCn1c(SCC(=O)Nc2ccc(Cl)cc2Cl)nnc1-c1cccc(Cl)c1
  24	-1.4	.	.
> O=S1(=O)CC(O)C(NCc2ccco2)C1 (stereo unspecified)
  0	-2.2	-0.42	-18
> COc1ccc(NC(=O)Nc2cccc3c2O[C@@H](CN(C)Cc2ccncc2)[C@H](C)CN([C@H](C)CO)C3=O)cc1
  -11	2.2	-0.21	-11
> Cc1noc(C)c1S(=O)(=O)N(C)C[C@H]1Oc2ccc(NS(=O)(=O)c3ccc(Cl)cc3)cc2CC(=O)N([C@@H](C)CO)C[C@H]1C
  -9	.	-0.13	0
> C[C@H](CO)N1C[C@H](C)[C@H](CN(C)Cc2ccc(C(F)(F)F)cc2)Oc2ccc(NC(=O)NC3CCCCC3)cc2C1=O
  36	-1.1	0.027	.
> C[C@H]1CN([C@@H](C)CO)C(=O)c2cc(NC(=O)c3ccncc3)ccc2O[C@@H]1CN(C)S(=O)(=O)c1cn(C)cn1
  8	0.6	0.29	.
> C[C@H]1CN([C@@H](C)CO)C(=O)c2cccc(NC(=O)CCCCCC(=O)Nc3ccccc3N)c2O[C@H]1CN(C)S(=O)(=O)c1ccccc1
  -1	0.2	-0.62	.
> Cc1noc(C)c1S(=O)(=O)Nc1ccc2c(c1)CC(=O)N([C@H](C)CO)C[C@@H](C)[C@H](CN(C)S(C)(=O)=O)O2
  0	.	-0.024	55
> Cc1ccc(S(=O)(=O)Nc2ccc3c(c2)CC(=O)N([C@H](C)CO)C[C@H](C)[C@H](CN(C)Cc2ccc(Oc4ccccc4)cc2)O3)cc1
  13	2.9	0.5	-22
> Cc1noc(C)c1NC(=O)Nc1ccc2c(c1)C(=O)N([C@H](C)CO)C[C@@H](C)[C@@H](CN(C)S(C)(=O)=O)O2
  -1	1.3	0.5	-4
> CC1CN(c2ccc(NC(=O)c3ccco3)cc2C(=O)O)CC(C)O1 (stereo unspecified)
  -15	-1.0	0.12	11

By substructure, the entries above containing a nitro group on carbon.
Value order – MITF inh	PD-1 reversal	YB-1 expression	Shh pathway inh
> Cc1ccc2nc(-c3cccc(NC(=O)COc4ccc([N+](=O)[O-])cc4)c3)oc2c1
  32	1.5	.	.
> O=[N+]([O-])c1nn(-c2ccc(Cl)cc2)n(O)c1=NCc1ccccn1
  22	-8.4	.	.
> Cc1ccccc1NC(=O)CSc1nnc(-c2ccc([N+](=O)[O-])cc2)n1C
  -1	0.5	.	.

Only part of the results is shown; rates above refer to the full screens.
